RGS16-Gao: modulates binding between human RGS16 and Galphao; 220,000 tested, 0.38% active; bead-based flow cytometry RGS16-Galphao binding, fluorescence; actives lie on both sides; AID 1441; binding response (% of control), % at 10 µM; O15492+P09471;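 active = below 25% or above 175%, edge rows of some plates excepted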;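 note: Galphao activated by GDP with aluminum fluoride before binding; 100% = wells without compound and 0% = beads without RGS; some results beyond the cut were filed as inactive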
Target sequence (O15492 whole entry, looked up): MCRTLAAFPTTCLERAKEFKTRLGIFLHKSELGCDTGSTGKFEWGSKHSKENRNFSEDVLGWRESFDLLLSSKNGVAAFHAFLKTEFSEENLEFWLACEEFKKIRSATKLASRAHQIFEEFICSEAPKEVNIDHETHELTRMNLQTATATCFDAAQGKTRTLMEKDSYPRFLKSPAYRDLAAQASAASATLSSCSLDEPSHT
Target sequence (P09471 whole entry, looked up): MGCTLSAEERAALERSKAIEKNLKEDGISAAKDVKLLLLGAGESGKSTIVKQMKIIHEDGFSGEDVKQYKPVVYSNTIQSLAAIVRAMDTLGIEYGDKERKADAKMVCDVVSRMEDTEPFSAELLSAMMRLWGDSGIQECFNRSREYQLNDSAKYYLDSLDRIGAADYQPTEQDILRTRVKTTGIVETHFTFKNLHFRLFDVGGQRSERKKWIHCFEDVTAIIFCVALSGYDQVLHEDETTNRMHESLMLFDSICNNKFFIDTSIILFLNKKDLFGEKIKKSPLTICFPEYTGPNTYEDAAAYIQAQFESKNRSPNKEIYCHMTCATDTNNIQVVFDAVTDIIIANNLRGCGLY
PKD1 inh: blocks activity of human protein kinase D1 | Q15139 | PKD1 kinase fluorescence polarization assay | inhibition, %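 (about 10 µM by stock and volumes)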 | 200,000 tested, 0.056% active | AID 797;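 active = inhibition of 50% or more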;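 note: controls were vehicle for no effect and a reference inhibitor for full effect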
HSV replic up: increases HSV replication in cells; maximum fold increase; 220,000 tested, 0.005% active; HSV replication augmentation in cells, fold increase; AID 1956;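 active = peak rise of 1.5-fold or more in the series; tested in PC3 cells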;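 note: first round at 10 µM; read as green reporter fluorescence; hits show the peak of a series up to 25 µM; 1 = signal of infected wells without compound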
Insulin prom inh: TRM-6 insulin promoter activity inhibition; 130,000 tested, 0.9% active; TRM-6 cells (human fetal islet line), insulin promoter-eGFP reporter, imaging; reporter expression induced with tamoxifen; inhibition, % at 2 µM;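 active = inhibition above the mean plus 3 SD, with well images judged a real hit on visual review, cut at about 60% in these data, passing the limit was not always enough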
GALR2 agonist: activates the human galanin receptor 2; O43603; GALR2-expressing cells, agonist activation read-out; activation, %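 (tested at 5 µM)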; 140,000 tested, 0.48% active; AID 803;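 active = above mean plus 3 SD of all compounds, about 5% in these data, not always enough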;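 note: 0% = vehicle buffer wells and 100% = reference agonist at full effect; tested in CHO reporter cells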
Target sequence (O43603 whole entry, looked up): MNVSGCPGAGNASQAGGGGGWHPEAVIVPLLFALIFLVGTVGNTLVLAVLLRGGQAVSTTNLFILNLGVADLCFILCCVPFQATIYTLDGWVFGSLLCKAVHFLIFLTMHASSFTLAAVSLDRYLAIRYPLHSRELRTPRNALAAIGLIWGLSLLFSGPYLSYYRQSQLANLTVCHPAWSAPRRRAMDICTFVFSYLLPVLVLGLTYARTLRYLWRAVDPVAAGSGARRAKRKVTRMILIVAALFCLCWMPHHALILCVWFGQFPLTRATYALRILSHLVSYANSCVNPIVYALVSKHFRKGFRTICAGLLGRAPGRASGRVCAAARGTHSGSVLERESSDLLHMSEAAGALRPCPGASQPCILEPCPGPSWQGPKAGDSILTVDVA
Insulin prom inh cell count: recorded beside Insulin prom inh, whose call it bears; normalized cell count, %; measured here: cell count, toxicity; reference of the scale not given here;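 cells exposed to compound for 48 h; stained nuclei by imaging scaled within each plate; lower means fewer cells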
HSV replic up primary fold: further read-out of HSV replic up, marked with its call; fold increase; compound at 10 µM; measured here: primary screen fold increase 10 uM; tested in PC3 cells;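 GFP signal in the first replicate; 1 = infected wells without compound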
* hit, by the source's call; i = inactive; / = not tested or not shown.

Value order: RGS16-Gao, PKD1 inh, HSV replic up, HSV replic up primary fold, Insulin prom inh, Insulin prom inh cell count, GALR2 agonist
COc1ccc(N2CCN(C(=O)c3ccc(F)cc3)CC2)c([N+](=O)[O-])c1
→ 99.9, -6.3, i, 1, /, /, /
COc1cc(S(=O)(=O)N2CCCCC2)ccc1NC=O
→ 98.4, -0.3, /, /, -96.4, 51.6, -0.5
Clc1cccc(Nc2c3c(nc4ncnn24)CCC3)c1
→ 100.5, -2.2, i, 0.8, /, /, -2.1
O=C(c1csc2c1CCCC2)N1CCN(c2ccccc2)CC1
→ 104.5, -5.6, i, 1.01, /, /, -0.7
C#CCn1c(=NC(=O)c2ccc(Cl)s2)sc2cccc(OC)c21
→ 121.6, 7.9, i, 1.02, /, /, -2.2
CC(NC(=O)C1CCCN(S(=O)(=O)c2cnc[nH]2)C1)c1ccccc1 (stereo not given)
→ 109.6, -5.3, i, 0.96, /, /, -1.4
COCCn1nnnc1C(c1cccs1)N1CCN(c2nc3ccccc3s2)CC1 (stereo not given)
→ 100.5, -23.9, i, 0.69, 60.0, 91.8, -3.5
COc1cc(OC)c(C(=O)Nc2ccc(S(=O)(=O)Nc3ncccn3)cc2)cc1OC
→ 99.0, -8.4, i, 0.92, -13.2, 183.5, 0.2
Cc1ccc(CNC(=O)/C=C/c2c(Cl)cccc2Cl)cc1
→ 105.9, -2.4, i, 0.96, 5.3, 97.3, -0.6
COC(=O)c1ccccc1NC(=O)Nc1cc(C)cc(C)n1
→ 118.5, -7.0, i, 1.12, -56.2, 55.6, -2.4
O=C(c1ccccc1)N(c1ccccc1)C1C=CS(=O)(=O)C1 (stereo not given)
→ 102.5, -0.9, i, 0.94, /, /, -1.3
O=C(/C=C/c1ccco1)Nc1ccccn1
→ 64.5, -4.0, i, 0.81, -6.9, 97.7, 0.3
COc1ccc(CC2(CO)CCN(Cc3ccncc3)CC2)cc1
→ 100.2, 3.5, i, 0.99, /, /, /
CCN(CCCNC(=O)CCn1c(=O)[nH]c2ccccc2c1=O)c1ccccc1
→ 95.8, -3.1, i, 1.02, /, /, -0.5
CSc1ccc(CN2CCN(CC=C(C)C)C(CCO)C2)cc1 (stereo not given)
→ 101.6, -9.6, i, 1.02, /, /, /
O=S(=O)(Nc1cccc(-c2ccc3nncn3n2)c1)c1ccc(Cl)s1
→ 104.5, -4.8, i, 0.98, 26.7, 126.4, /
CC(C)(C)c1ccccc1OCCOCCNCc1ccccc1
→ 103.0, -5.9, i, 0.95, -69.2, 102.2, 1.4
O=C(CP(=O)(c1ccccc1)c1ccccc1)Nc1nc2ccc(Cl)cc2s1
→ 96.6, /, i, 0.98, /, /, /
CCCC(=O)NC(=S)Nc1ccccc1N1CCOCC1
→ 106.0, -13.6, i, 0.95, -23.1, 113.2, 0.3
C=CCn1c(COc2cccc(C)c2C)nnc1SCC(=O)N1CCN(c2ccccc2)CC1
→ 87.7, -11.5, i, 1.22, /, /, -0.4
COc1ccc(N2CCN(Cc3nc(-c4ccc(Cl)cc4Cl)no3)CC2)cc1
→ 100.9, 8.6, i, 1, -25.7, 33.5, -1.2
CC(C(=O)Nc1ccc(F)c(F)c1F)N(C)CC(=O)Nc1ccccc1Br (stereo not given)
→ 100.2, 4.4, i, 1.05, /, /, 0.6
COC(=O)/C(C#N)=C(/Nc1ccc(F)c(Cl)c1)C(F)(F)F
→ 104.2, /, i, 1.3, /, /, /
CCOc1ccc2cc(C3CC(c4ccco4)=NN3S(C)(=O)=O)c(=O)[nH]c2c1 (stereo not given)
→ 96.0, /, i, 0.81, /, /, /
O=C(NC1CCCCC1)C1CCN(c2nnnn2-c2ccccc2)CC1
→ 107.8, -19.2, i, 1.06, -8.3, 59.7, 1.2
COC(=O)c1cc(C)sc1NC(=S)N1CCN(CCc2ccccc2)CC1
→ 90.3, -5.8, i, 0.86, /, /, /
COC(=O)c1cn(NC(=O)c2ccncc2)c(=O)c2ccccc12
→ 102.2, -0.3, i, 1.02, 15.6, 116.5, -1.8
COc1ccc(/C(O)=C/c2nc3ccc(C(=O)NCCc4cccc(C)c4)cc3[nH]c2=O)cc1OC
→ 101.3, -0.3, i, 1.1, -107.4, 126.8, 0.5
Cc1cccc(C)c1NC(=O)C(c1cccc([N+](=O)[O-])c1)N(C)C(=O)c1ccccn1 (stereo not given)
→ 94.7, -1.5, i, 1, /, /, -0.6
COc1ccc(C(=O)Nc2nc(C)c3cc4c(cc3n2)OCO4)cc1
→ 159.9, 5.0, i, 1, -3.1, 65.5, -1.7

The closing 5 entries of the part above open the next one:
Value order: RGS16-Gao, PKD1 inh, HSV replic up, HSV replic up primary fold, Insulin prom inh, Insulin prom inh cell count, GALR2 agonist
COC(=O)c1cc(C)sc1NC(=S)N1CCN(CCc2ccccc2)CC1
→ 90.3, -5.8, i, 0.86, /, /, /
COC(=O)c1cn(NC(=O)c2ccncc2)c(=O)c2ccccc12
→ 102.2, -0.3, i, 1.02, 15.6, 116.5, -1.8
COc1ccc(/C(O)=C/c2nc3ccc(C(=O)NCCc4cccc(C)c4)cc3[nH]c2=O)cc1OC
→ 101.3, -0.3, i, 1.1, -107.4, 126.8, 0.5
Cc1cccc(C)c1NC(=O)C(c1cccc([N+](=O)[O-])c1)N(C)C(=O)c1ccccn1 (stereo not given)
→ 94.7, -1.5, i, 1, /, /, -0.6
COc1ccc(C(=O)Nc2nc(C)c3cc4c(cc3n2)OCO4)cc1
→ 159.9, 5.0, i, 1, -3.1, 65.5, -1.7
Cc1occc1C(=O)NNS(=O)(=O)c1ccc(Cl)cc1
→ 102.2, -5.0, i, 0.61, /, /, 0.5
C=CCn1c(=O)/c(=C/c2ccc(F)cc2)s/c1=C(\C#N)c1nnc2n1CCCCC2
→ 102.1, -15.4, i, 0.55, /, /, -1.0
CCOc1cc(C2C(C#N)=C(N)OC(C)=C2C(C)=O)c(Br)c(Br)c1OC(C)C (stereo not given)
→ 98.9, 6.6, i, 0.9, -31.4, 63.2, 0.7
O=S1(=O)N=C2CCCCCN2C(c2ccncc2)N1 (stereo not given)
→ 97.9, -3.2, i, 0.82, /, /, -2.2
O=C(NCc1ccco1)NC(=O)c1csc([N+](=O)[O-])c1
→ 107.9, /, i, 0.85, /, /, /
CCCCOC(=O)c1sc2nc(C)cc(C)c2c1N
→ 104.2, /, i, 1.05, /, /, /
COc1ccc(NC(=O)CSc2nncn2C)c([N+](=O)[O-])c1
→ 92.1, -16.1, i, 0.97, 10.0, 85.1, -3.9
COc1ccccc1NC(=O)c1cc(S(=O)(=O)N2CCC3(CC2)OCCO3)ccc1F
→ 100.8, -1.6, i, 0.93, 21.4, 149.8, -1.1
O=C1N/C(=C\c2ccc(O)cc2)C(=O)c2ccccc21
→ 94.4, -0.6, i, 0.88, /, /, -1.0
O=C(Cn1nnc(-c2cccs2)n1)NCCc1ccccc1
→ 100.2, -10.8, i, 1.07, 18.9, 59.2, -1.8
O=C(Nc1ccc([N+](=O)[O-])cc1)Nc1ccc(N2CCOCC2)c2nonc12
→ 94.3, 1.9, i, 0.86, 46.7, 148.5, /
N/C(=N\OC(=O)c1ccc(Cl)cc1Cl)c1cccnc1
→ 111.5, -1.4, i, 1.04, /, /, /
Cc1nnc(SCc2c(Cl)cccc2Cl)n(N)c1=O
→ 97.3, -0.3, i, 0.84, /, /, /
C/C(=N\Nc1ccc2nncn2n1)c1ccc(Br)s1
→ 98.2, /, i, 0.91, /, /, /
O=C(Nc1nc(-c2ccccc2)cs1)c1ccccc1NS(=O)(=O)c1ccc(F)cc1
→ 55.9, -2.7, i, 0.71, 30.8, 83.6, -2.0
COC(=O)c1ccc(S(=O)(=O)N2CCC(c3nc4ccccc4o3)CC2)cc1
→ 104.6, -0.7, i, 0.75, 11.4, 64.7, -0.8
N#CC(C(=O)CCN1C(=O)C2CC=CCC2C1=O)c1nc2ccccc2[nH]1 (stereo not given)
→ 104.7, -10.8, i, 0.89, 51.4, 101.6, -0.3
CCOc1ccc2nc(SC3CC(=O)N(c4ccc(OC)cc4)C3=O)sc2c1 (stereo not given)
→ 106.3, -9.3, i, 0.85, /, /, -2.5
CCn1c(SCC(=O)c2[nH]c(C)c(C(C)=O)c2C)nnc1-c1ccccc1
→ 19.2, 1.7, i, 1, 0.0, 110.8, -1.4
CC(=O)N(CCC1(c2ccc(C)cc2)CCOC(C(C)C)C1)Cc1ccco1 (stereo not given)
→ 91.1, /, i, 0.94, /, /, /
C/C(=N\Nc1ccc(F)cc1F)c1ccc(Br)s1
→ 102.6, -2.6, i, 0.98, /, /, /
CCOc1ccccc1NC(=O)Cn1cnc2c(cnn2-c2ccc(C)c(C)c2)c1=O
→ 105.2, 8.0, i, 0.89, -7.1, 126.3, -0.4
Cc1nc2sc(C(c3cccc(F)c3)N3CCC(O)CC3)c(O)n2n1 (stereo not given)
→ 103.8, -8.3, i, 0.897, /, /, 0.0
O=C(NN1S(=O)(=O)c2ccccc2S1(=O)=O)c1ccc(Br)cc1
→ 109.6, -9.7, i, 0.97, 27.3, 77.7, /
CC1=CC(=C2C(=O)c3ccccc3C2=O)C=C(C)O1
→ 105.3, -2.3, /, /, -25.0, 110.6, 1.0
Cc1cccc(NC(=O)CSc2nnc([C@@H](N)Cc3ccccc3)o2)c1C
→ 103.1, 12.7, i, 1.05, 25.6, 97.5, 0.0
COC(=O)[C@@H](N)CS
→ 65.8, 7.4, i, 0.92, -76.2, 73.5, 0.2
O=C(NCc1nnc(SCC(=O)N2CCc3ccccc32)o1)c1ccco1
→ 108.9, 2.6, i, 0.95, 54.5, 137.0, /
O=C(Nc1ccn(Cc2ccc(Cl)cc2)n1)c1ccc2c(c1)OCO2
→ 100.6, -4.3, i, 0.92, 76.9*, 99.4*, -2.8
CC1CCc2c(sc(N)c2C(N)=O)C1 (stereo not given)
→ 89.6, -5.0, i, 0.96, 6.2, 22.9, 0.6

Three compounds from above, arranged by the value under GALR2 agonist, low to high.
structure,GALR2 agonist
CCOc1ccc2nc(SC3CC(=O)N(c4ccc(OC)cc4)C3=O)sc2c1 (stereo not given),-2.5
CCn1c(SCC(=O)c2[nH]c(C)c(C(C)=O)c2C)nnc1-c1ccccc1,-1.4
Cc1cccc(NC(=O)CSc2nnc([C@@H](N)Cc3ccccc3)o2)c1C,0.0

Additional records.
Letter code – A = RGS16-Gao; B = PKD1 inh; C = HSV replic up; D = HSV replic up primary fold; E = Insulin prom inh; F = Insulin prom inh cell count; G = GALR2 agonist
SMILES: COc1ccc(S(=O)(=O)N(CC(=O)Nc2ccc(S(=O)(=O)N3CCOCC3)cc2)Cc2ccc(F)cc2)cc1
  A: 34.9; B: 3.2; C: i; D: 0.91; E: 18.9; F: 56.0; G: -1.2

SMILES: COC(=O)CS(=O)(=O)c1ccc2c(c1)CC(=O)N2
  A: 97.2; B: -3.5; C: i; D: 0.99; E: /; F: /; G: -1.4

SMILES: O=C(Nc1ccc(F)cc1)Oc1ccccc1N1CCOCC1
  A: 98.2; B: /; C: i; D: 1.03; E: /; F: /; G: /

SMILES: CC(CCc1ccccc1)NC(=O)C(Cc1ccccc1)NS(=O)(=O)c1cccs1 (stereo not given)
  A: 102.7; B: -2.6; C: i; D: 0.95; E: -35.5; F: 147.4; G: -2.0

SMILES: O=S1(=O)CCN2C(c3cccc4ccccc34)=CSC2=N1
  A: 103.5; B: -0.2; C: i; D: 1.05; E: 0.0; F: 115.8; G: /

SMILES: C/C(N)=C(/C#N)C(=O)COC(=O)c1cccc2ccccc12
  A: 102.4; B: 6.5; C: i; D: 0.98; E: /; F: /; G: -1.1

SMILES: Cc1cc(C)n2nc(SCc3cc(=O)n4ccccc4n3)nc2n1
  A: /; B: -8.3; C: /; D: /; E: 33.3; F: 56.8; G: -0.6

SMILES: Cc1cc(Oc2ccccc2)nc(NCc2ccccc2)n1
  A: 104.1; B: -0.9; C: i; D: 0.96; E: -14.3; F: 77.6; G: -1.1

SMILES: COc1cc(C(=O)n2nc(C)cc2C)ccc1O
  A: 100.1; B: 2.2; C: i; D: 0.86; E: -10.3; F: 80.8; G: -1.1

SMILES: CNC(=O)CC(C(=O)O)c1ccc(OC(C)C)cc1 (stereo not given)
  A: 108.5; B: -1.6; C: i; D: 1.05; E: -32.4; F: 85.0; G: -2.0

SMILES: O=C(Nc1ccc2nn(-c3ccccc3)nc2c1)c1cccs1
  A: 101.1; B: -5.5; C: i; D: 1.02; E: -6.1; F: 101.5; G: -0.2

SMILES: COc1ccc(-c2cn3ccccc3n2)cc1OC
  A: 83.7; B: -1.2; C: i; D: 0.88; E: /; F: /; G: -2.4

Reprinted at random: 2 records from the list, in no set order.
Letter code – A = RGS16-Gao; B = PKD1 inh; C = HSV replic up; D = HSV replic up primary fold; E = Insulin prom inh; F = Insulin prom inh cell count; G = GALR2 agonist
SMILES: O=C(Nc1ccc2nn(-c3ccccc3)nc2c1)c1cccs1
  A: 101.1; B: -5.5; C: i; D: 1.02; E: -6.1; F: 101.5; G: -0.2

SMILES: CNC(=O)CC(C(=O)O)c1ccc(OC(C)C)cc1 (stereo not given)
  A: 108.5; B: -1.6; C: i; D: 1.05; E: -32.4; F: 85.0; G: -2.0
